Compound activity as filed in PubChem BioAssay.
MLL AF4-AF9 inh: blocks AF4 peptide binding to human AF9 | P42568 | AlphaScreen, biotin-AF4 peptide binding to FLAG-AF9 | inhibition, % at 10 µM | actives 0.47% (n = 350,000) | AID 651704;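 active means every replicate reaching a set inhibition limit, whatever the replicate mean, cut at about 25% in these data; inconclusive means mean inhibition reaches that limit but some replicates miss it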;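 further: 0% = plate neutral control median and 100% = total signal loss; the record names both 10 and 1 µM as test concentration; the first replicate is given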
Target sequence (P42568 whole entry, looked up): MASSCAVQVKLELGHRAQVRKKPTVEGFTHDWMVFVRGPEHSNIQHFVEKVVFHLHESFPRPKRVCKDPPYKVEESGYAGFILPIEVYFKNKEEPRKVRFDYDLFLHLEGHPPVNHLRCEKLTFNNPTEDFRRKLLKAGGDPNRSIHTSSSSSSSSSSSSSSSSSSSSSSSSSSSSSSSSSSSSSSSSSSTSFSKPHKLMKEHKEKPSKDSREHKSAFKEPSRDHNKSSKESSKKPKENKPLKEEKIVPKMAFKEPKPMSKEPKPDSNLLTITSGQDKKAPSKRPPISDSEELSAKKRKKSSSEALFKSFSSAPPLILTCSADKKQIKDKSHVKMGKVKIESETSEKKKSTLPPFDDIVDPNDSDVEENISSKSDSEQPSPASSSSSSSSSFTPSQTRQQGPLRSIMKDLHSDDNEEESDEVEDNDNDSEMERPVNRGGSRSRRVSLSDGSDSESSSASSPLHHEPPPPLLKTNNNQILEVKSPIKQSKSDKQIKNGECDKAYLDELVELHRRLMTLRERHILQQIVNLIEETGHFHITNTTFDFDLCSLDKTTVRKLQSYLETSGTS
Beta cell apopt: beta cell apoptosis inhibition | INS-1E cytokine-induced death, ATP luminescence, 48 h; percent of positive-control rescue, neutral wells zero | actives 0.8% (n = 300,000) | AID 435005 | protection from apoptosis, % (concentration not given with the values);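 active means all replicates at 75% or more, or half of them and the mean; inconclusive means half reach 75% but not the mean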;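 further: 0% = cytokine-treated negative control wells and 100% = positive control rescue; higher means more ATP so stronger rescue from cytokine killing; wells of about 40 µL received 100 nL stock; the first replicate is given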
A1 inh: inhibitors of the anti-apoptotic protein A1, read as caspase activation. MEF A1-2A-BIM cells, Caspase-Glo 3/7 luminescence, 3 h; percent of clofoctol response, vehicle zero. caspase activation, % (test concentration not listed). actives 0.066% (n = 330,000). AID 2462;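 active means over half of replicate activation scores above 10%, or exactly half above 10 with the replicate mean above 10; inconclusive means replicate mean below 10 yet half the replicates above 10; inactive means over half of replicates below 10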;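 further: wells of about 30 µL received 50 nL stock; many hits fall short of the cut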
RanGTP-Impb inh: disruptors of Ran-importin-beta complex formation – biochemical, FRET, CFP-Ran, YFP-importin-beta, homogeneous, primary screen; inhibition, % (no concentration beside the values); cell-free CFP-Ran/YFP-importin-beta FRET ratio; actives 1.1% (n = 300,000);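 active means most replicates above 15%; inconclusive means exactly half above 15%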;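 further: 0% = DMSO wells and 100% = Ran loaded with GDP instead of GTP; wells of about 40 µL received 100 nL stock; the first replicate is given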
T cruzi inh: blocks replication of Trypanosoma cruzi; T. cruzi beta-gal in NIH3T3, luminescence, 90 h; actives 1.4% (n = 300,000); inhibition, % (test concentration not listed);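 active means mean inhibition across valid replicates above about 55%, limit read from the data; inconclusive means mean below that limit but half or more replicates reach it; inactive means mean below it, under half of replicates reach it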;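 further: signal also drops with host cell toxicity which is not excluded here; 0% = plate median of DMSO wells and 100% = zero luminescence signal; higher percent means less beta-gal luminescence so fewer parasites; stock transfer was 50 nL into about 50 µL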
Vif TR-FRET: inhibitors of Vif binding to APOBEC3G peptide, primary screen, biochemical, TR-FRET, GST-Vif 1-94, biotin-A3G peptide, dose response retest (AID 1117319). TR-FRET GST-Vif / biotin-A3G peptide binding; higher % means a stronger effect; test concentration not given here; strong numbers were not always called active. inhibition, %, or IC50 in µM where a hit was titrated. actives 0.57% (n = 260,000);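 active means above the screen mean plus three standard deviations and confirmed in dose response; inconclusive means results disagree or hit not tested in dose response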;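 further: Vif residues 1-94 fused to GST binding biotinylated APOBEC3G peptide 110-148; 0% = full assay without inhibitor and 100% = GST in place of GST-Vif; retest series ran down from 100 µM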
Calb FLC: affects C. albicans growth with fluconazole; C. albicans CaCi-2 (fluconazole-resistant clinical isolate) + fluconazole, Alamar Blue growth, 48 h; growth inhibition, % (test concentration not listed); actives 0.57% (n = 300,000);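 active means most replicates above 75%; inconclusive means exactly half above 75%; inactive means most below 75%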;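 further: all wells also contain fluconazole at 8 µg/ml as a sub-toxic cotreatment; 0% = median of DMSO wells and 100% = median of geldanamycin control wells; wells of about 8 µL received 7.5 nL stock; the first replicate is given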
LANA-H2A inh: blocks KSHV LANA binding to histone H2A/H2B | cell-free LANA-H2A/H2B peptide, fluorescence polarization | inhibition, % (concentration not given with the values) | actives 0.6% (n = 320,000) | AID 2629; in the data active means inhibition mostly above about 10%, no sharp cut-off; inactive means mostly below about 6.7%;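 further: stock transfer was 7.5 nL into about 10 µL; 0% = median of vehicle wells and 100% = median of positive control wells; one replicate is shown; the record names a cut of 25% in any replicate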
Active calls of the source: *; u = inconclusive; x = not tested or not shown; & = joins results of further samples.

Under each structure – MLL AF4-AF9 inh	Beta cell apopt	A1 inh	RanGTP-Impb inh	T cruzi inh	Vif TR-FRET	Calb FLC	LANA-H2A inh
- Cc1cc(N2C(=O)C(=O)/C(=C(/O)c3ccc(Cl)cc3)C2c2cccc(Br)c2)no1 (stereo not drawn)
    x	-7	2.0	0.7	-3	-6%	30	4.6
- O=c1oc2ccccc2c(CNc2ccccc2)c1[N+](=O)[O-]
    -2.0	-5	0.2	-7.2	-4	-17%	15	2.7
- CSCCC(NC(=O)OC(C)(C)C)C(=O)NC(C(=O)NC(CC(C)C)C(N)=O)C(C)C (stereo not drawn)
    -2.8	-5	0.4	u	10	-4%	0	4.9
- O=C(NCCC(=O)N1CCc2ccccc21)c1ccccc1Cl
    -0.2	-6	0.1	0.3	28	x	6	1.6
- C=CCn1c(O)c(N=NC(=O)C(O)c2ccccc2)c2ccccc21 (stereo not drawn)
    0.0	-1	-0.3	1.3	-4	-11%	-6	2.4
- CNc1nc(SC)nc2ccsc12
    x	-1	1.1	0.0	-10	-1%	1	-5.7
- CSc1nc(SCC(=O)NCC2CCCO2)c2c3c(sc2n1)CN(C)CC3 (stereo not drawn)
    -0.9	-3	0.0	-0.6	34	x	-1	3.9
- Cc1nn(-c2ccccc2)c(C)c1/C=C/C(=O)OCC(=O)Nc1ncc(C(F)(F)F)cc1Cl
    x	-3	0.3	0.1	-21	12%	3	3.6
- COc1cccc(/C=C2\CCCCC2=O)c1
    5.2	-1	-2.2	0.5	-22	9%	-5	-2.4
- COc1ccc(/C(C)=N\Nc2nc(-c3ccccc3)cc(=O)[nH]2)cc1
    -1.7	0	0.1	3.2	19	0%	0	-3.1
- O=[N+]([O-])c1ccccc1/C=N/n1c(-c2cccnc2)n[nH]c1=S
    x	2	0.8	1.9	-5	x	17	-0.9
- Cc1ccc(Cl)cc1N1CCN(Cc2nc3c(c(=O)[nH]c(=O)n3C)n2Cc2ccccc2F)CC1
    -2.6	-16	-0.4	-0.8	38	x	1	-6.1
- O=C(O)c1ccccc1NC(=O)C1C2C=CC(C2)C1C(=O)O (stereo not drawn)
    -0.4	-5	-0.2	-2.6	4	-5%	-3	-7.9
- COCCNC(=O)CNC(=S)N(Cc1ccccc1)Cc1cccnc1
    x	-3	-0.3	u	-11	x	0	-3.8
- COc1ccc(NC(=O)Nc2ccc3[nH]ccc3c2)cc1
    1.3	0	-5.3	4.0	-4	x	0	-6.4
- COc1ccc(S(=O)(=O)N2CCOCC2)cc1NC(=O)CC1CCCC1
    -0.2	-3	-0.2	x	x	x	x	-2.8
- CSc1ccccc1NC(=O)CN(C)Cc1cccc(Cl)c1
    -1.7	1	0.4	2.0	4	-5%	u	1.7
- CCCN(CCC)C(=O)c1ccc2c(=O)n(Cc3ccco3)c(=S)[nH]c2c1
    0.9	6	-1.8	1.4	1	-8%	18	-1.7
- Nc1nccc(-c2ccc(-n3cccc3)cc2)n1
    -0.6	-8	-2.9	-1.9	-6	x	-1	-2.8
- CCOc1ccc(OCC)c(NC(=O)C2COc3ccccc3O2)c1 (stereo not drawn)
    x	10	0.2	2.9	2	6%	19	4.0
- COc1ccc(CNC(=O)Cn2nnc3ccccc3c2=O)cc1
    5.0	0	-0.7	-0.1	-13	19%	-3	-1.8
- CCOc1ccccc1NC(=O)c1ccoc1C
    x	-9	0.7	2.8	-4	-2%	-6	0.4
- CCCn1c(SCC(=O)N(C2CCCCC2)C2CCS(=O)(=O)C2)n[nH]c1=O (stereo not drawn)
    -0.7	-4	0.0	x	x	x	x	-3.8
- CC(=O)c1c(C)[nH]c(C(=O)OCC(=O)NCc2cccs2)c1C
    0.9	6	0.7	x	x	-1%	x	0.2
- CN(C)/C=C1\C=C(c2ccccc2)OC1=O
    x	-7	-0.8	-3.3	-25	u	0	-0.4
- COc1ccc2c(c1)CCCC21NC(=O)N(CC(=O)NC(=O)NCc2ccccc2)C1=O (stereo not drawn)
    1.3	-1	1.0	2.4	38	-2%	-19	0.0
- Cc1ccc(OCC(O)CN2CCN(c3ccccn3)CC2)c(C)c1 (stereo not drawn)
    -15	1	0.3	0.0	22	21%	1	-3.6
- CCOC(=O)c1cn2nc(N3CCCC3)ccc2n1
    -2.0	3	-4.4	u	-2	-9%	-3	-5.0
- COc1cccc2cc(C(C)N(CCCN3CCOCC3)C(=O)Nc3ccccc3)oc12 (stereo not drawn)
    x	0	0.0	-0.8	9	21%	-6	3.2
- CC1=CCC2C(=O)N(c3cccc(C(=O)NCc4ccccc4)c3)C(=O)C2C1 (stereo not drawn)
    2.2	-7	1.0	-2.9	-6	-9%	-2	4.5
- Cc1nc2ccccc2c2oc(C(=O)N3CCN(C4CCCCC4)CC3)cc12
    -0.3	23	-2.2	4.3	-3	3%	-1	-3.1
- CC(C)(C)S(=O)(=O)c1ccccc1C(=O)O
    x	1	-0.7	2.0	-17	1%	-5	3.0
- COc1ccccc1NC(=O)C(C)N1CCN(C/C=C/c2ccccc2)CC1 (stereo not drawn)
    x	4	0.4	0.9	27	-4%	-23	-0.1
- CCNC(=S)NNC(=O)c1cc(-c2cccc(C)c2)nc2ccccc12
    15	42	-15	-1.4	19	1%	116*	-3.3
- Cc1ccc(C(=O)COC(=O)CN2C(=O)C3C4CC(C(Br)C4Br)C3C2=O)cc1 (stereo not drawn)
    -3.0	-4	0.0	1.1	-6	x	0	4.2
- O=C(O)C1CCCN1C(=O)OCC1c2ccccc2-c2ccccc21 (stereo not drawn)
    4.4	-6	1.2	u	-6	-2%	-3	0.2
- Cc1cc(C)n(CC2CC(=O)N(c3ccc(C)c(Cl)c3)C2=O)n1 (stereo not drawn)
    1.7	-5	0.5	2.9	-1	x	-2	-8.9
- CCN=c1scc(C)n1/N=C/c1ccc(O)c(O)c1O
    x	-4	-2.2	-3.6	-2	2.5µM*	88*	3.8
- COCCn1c(-c2ccc(Cl)cc2Cl)nc2c(c(=O)c3ccccc3n2C)c1=O
    0.9	-16	0.2	2.8	25	30%	2	6.8
- Cn1cnnc1Sc1ccc(C(=O)OCC(=O)NCC(F)(F)F)cc1[N+](=O)[O-]
    -3.1	-7	0.3	-1.1	-6	u	0	-1.5
- CCOc1ccc2nc(NC(=O)CSC3=NCCS3)sc2c1
    x	-6	1.2	0.7	28	2%	17	4.0
- CN1CCN(c2nc3ccccn3c(=O)c2C=O)CC1
    x	-10	-0.3	100*	15	-2%	3	2.8
- CCOC(=O)C1C(=O)NC(SC)=C(C#N)C1c1ccccc1F (stereo not drawn)
    x	-6	0.5	0.1	0	5%	-27	-2.1
- CSc1ccccc1NC(=O)CSc1n[nH]c(N)n1
    -1.8	-3	-0.3	-1.1	-4	12%	-19	-1.5
- Cn1c(=O)c2c(nc(CN3CCC(C(N)=O)CC3)n2Cc2ccccc2Cl)n(C)c1=O
    x	1	x	5.4	-9	4%	8	3.3
- Cc1ccc(S(=O)(=O)N2CCOCC2)cc1C(=O)OCC(=O)Nc1ccc2c(c1)OCO2
    x	2	0.3	-5.7	3	2%	-34	-5.9
- Cc1cccc(OCCCCCn2ccnc2)c1
    x	-1	1.1	3.7	57*	13%	8	0.6
- Cc1nc(NCC2CCCO2)c2oc3ccccc3c2n1 (stereo not drawn)
    x	-13	0.2	-1.8	-7	7%	11	-1.6
- O=C(NCc1ccc(F)cc1)C1CCC(=O)N1CCc1ccccc1 (stereo not drawn)
    1.2	x	-0.5	1.0	1	-1%	4	1.4
- Cc1csc(NC(=O)c2ccccc2)n1
    -10	x	-5.3	u	-12	x	-7	0.5

New compounds follow
Under each structure – MLL AF4-AF9 inh	Beta cell apopt	A1 inh	RanGTP-Impb inh	T cruzi inh	Vif TR-FRET	Calb FLC	LANA-H2A inh
- Cc1ccc(C(=O)NCCCN2CCOCC2)cc1Cl
    1.1	0	-0.2	4.9	-11	x	26	-3.3
- CCCCCC/C=C/c1ccc([C@H]2[C@H]3C=CC[C@@H](C)[C@@H]3C(=O)N2Cc2ccccc2)c(F)c1
    -0.4	6	-0.8	-1.5	-11	-2%	7	-0.8
- CCc1nnc(NC(=O)CCC(=O)N2CCN(c3cccc(Cl)c3)CC2)s1
    -9.0	-3	0.5	-3.2	10	x	17	7.4
- Cc1nn(C)c(C(=O)N/N=C/c2ccccn2)c1[N+](=O)[O-]
    -2.7	-7	-0.7	-2.0	-7	-5%	1	-0.1
- COc1ccccc1CN1CC(C(=O)NCc2cccnc2)CC1=O (stereo not drawn)
    x	-5	-0.2	-2.1	-6	0%	-2	2.7
- N#Cc1ccc(OCC(=O)N2CCN(C(=O)c3ccco3)CC2)cc1
    7.3	-1	0.4	x	x	x	x	-0.9
- Cc1ccsc1/C=N\NC(=O)c1cc(C(C)(C)C)[nH]n1
    3.5	1	-1.0	3.2	3	0%	33	-2.3
- C[C@H](CO)N1C[C@H](C)[C@@H](CN(C)S(=O)(=O)c2cccs2)Oc2ccc(NS(=O)(=O)c3cn(C)cn3)cc2C1=O
    -1.1&-0.6	2	-1.7	x	x	x	x	-4.6
- CCN(Cc1ccc2c(c1)OCCO2)S(=O)(=O)c1ccc(NC(C)=O)cc1
    -5.0	1	0.2	x	x	-9%	x	-12
- O=C(c1ccccc1)c1cc2ccccc2o1
    x	x	-4.4	1.8	-9	2%	-11	-2.3
- CCN(CC)CCCN(Cc1cc2cc3c(cc2[nH]c1=O)OCO3)C(=S)NC
    -2.2	-4	1.6	-11	-14	x	-8	2.4
- COc1cccc(Oc2nc(-c3ccccc3O)nc3ccccc23)c1
    3.8	-9	-0.4	-3.9	13	0%	14	4.7
- CSC1=C(C#N)C(c2ccccc2Cl)C2=C(N1)c1ccccc1C2=O (stereo not drawn)
    x	-2	-0.6	1.5	7	2%	-19	1.0
